Vaccinia inh – blocks a specific stage of Vaccinia orthopoxvirus infection; Vaccinia-infected cells, mCherry/Venus stage reporter fluorescence; active compounds read low; some inactives read as strong as hits; activity change (mCherry), % (test concentration not listed); 89,000 compounds, 0.01% hits; AID 1053133;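 active = mCherry past -33% and 40 or more points under the early reporter, replicates agreeing; inconclusive = past -33% without that gap or agreement; tested in A549 cells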;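 note: scaled between vehicle wells and reference inhibitor wells; 23 nL library stock went into each well; one replicate is shown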
Vaccinia inh Venus – further read-out of Vaccinia inh, marked with its call; activity change (Venus), %; measured here: Venus reporter, other viral stage;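 negative = less Venus signal; first of two replicates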
* hit, by the source's call; ? = inconclusive; . = no result given; & = joins results of further samples. The list is partial; the hit share may differ from the screen's.

Values in the order – Vaccinia inh	Vaccinia inh Venus
1. CCCC(=O)Nc1ccc2c(c1)OC[C@@H](C)N(Cc1ccccc1)C[C@H](C)[C@H](OC)CN(C)C2=O
 : 7	-5
2. Cc1ccc(S(=O)(=O)NCC[C@@H]2CC[C@H](NC(=O)CC3CC3)[C@H](CO)O2)cc1
 : -15	-2
3. C[C@H]1CN([C@@H](C)CO)C(=O)c2cccc(NC(=O)C3CCOCC3)c2O[C@H]1CN(C)Cc1ccc(C(=O)O)cc1
 : 15	4
4. O=C(C[C@H]1C[C@H]2c3cc(NC(=O)Nc4ccccc4)ccc3O[C@H]2[C@H](CO)O1)NCc1ccncc1
 : -1	0
5. C[C@@H]1CN([C@H](C)CO)C(=O)c2cc(C#CC3CC3)cnc2O[C@H]1CN(C)S(C)(=O)=O
 : 14&34	7&30
6. Cc1ccc(S(=O)(=O)N(C)C[C@@H]2OCc3ccccc3-c3c(n(C)c4ccccc34)C(=O)N([C@H](C)CO)C[C@@H]2C)cc1
 : ?	.
7. C[C@@H]1CN([C@H](C)CO)C(=O)c2cccc(NC(=O)c3cnccn3)c2O[C@H]1CN(C)Cc1ccc(C(=O)Nc2ccccc2N)cc1
 : 0	3
8. Cc1ccc(S(=O)(=O)N2CC[C@@H]3[C@@H](CO)N(C)c4ccc(-c5cccc(C#N)c5)cc4[C@@H]32)cc1
 : ?	.
9. COc1ccc(NC(=O)Nc2ccc3c(c2)C(=O)N([C@H](C)CO)C[C@@H](C)[C@H](CN(C)C)O3)cc1
 : 2	2
10. O=C(C[C@H]1C[C@H]2c3cc(NS(=O)(=O)c4ccc(F)cc4)ccc3O[C@H]2[C@@H](CO)O1)NCc1cccc(F)c1
 : -21	-15

4 of these compounds, reformatted.
No.	Structure	Vaccinia inh	Vaccinia inh Venus
1	CCCC(=O)Nc1ccc2c(c1)OC[C@@H](C)N(Cc1ccccc1)C[C@H](C)[C@H](OC)CN(C)C2=O	7	-5
2	Cc1ccc(S(=O)(=O)NCC[C@@H]2CC[C@H](NC(=O)CC3CC3)[C@H](CO)O2)cc1	-15	-2
3	C[C@H]1CN([C@@H](C)CO)C(=O)c2cccc(NC(=O)C3CCOCC3)c2O[C@H]1CN(C)Cc1ccc(C(=O)O)cc1	15	4
4	O=C(C[C@H]1C[C@H]2c3cc(NC(=O)Nc4ccccc4)ccc3O[C@H]2[C@H](CO)O1)NCc1ccncc1	-1	0

Following part
Values in the order – Vaccinia inh	Vaccinia inh Venus
11. COc1ccc(C#Cc2ccc([C@@H]3[C@H]4CN(C(=O)NC(C)C)CC(=O)N4[C@H]3CO)cc2)cc1
 : -13	12
12. COc1cccc(S(=O)(=O)Nc2ccc3c(c2)C(=O)N(C)C[C@@H](OC)[C@H](C)CN[C@@H](C)CO3)c1
 : 16	9
13. C[C@H]1CN([C@@H](C)CO)S(=O)(=O)c2ccc(C#Cc3ccncc3)cc2O[C@@H]1CN(C)C(=O)C1CC1
 : -8	-7
14. Cc1ccc(S(=O)(=O)Nc2ccc3c(c2)CC(=O)N([C@H](C)CO)C[C@@H](C)[C@H](CN(C)S(=O)(=O)c2cn(C)cn2)O3)cc1
 : 12	12
15. C/C=C/c1ccc2c(c1)O[C@H](CN(C)C(=O)CC1CC1)[C@@H](C)CN([C@H](C)CO)S2(=O)=O
 : -9	-5
16. C[C@H]1CN([C@@H](C)CO)C(=O)c2cc(-c3ccccc3F)cnc2O[C@H]1CN(C)C(=O)NC1CCCC1
 : 9	2
17. C[C@H]1CN([C@@H](C)CO)S(=O)(=O)c2ccc(-c3cccnc3)cc2O[C@H]1CN(C)C(=O)c1cccc(F)c1
 : 8	5
18. Cc1ccc(S(=O)(=O)Nc2ccc3c(c2)CC(=O)N([C@@H](C)CO)C[C@@H](C)[C@@H](CN(C)C(=O)Nc2cccc4ccccc24)O3)cc1
 : 11	23
19. COc1ccc(C#Cc2ccc3c(c2)O[C@H](CN(C)C)[C@@H](C)CN([C@H](C)CO)S3(=O)=O)cc1
 : -35	-21
20. O=C(N[C@H]1CC[C@H](CCNC(=O)c2cnccn2)O[C@@H]1CO)c1ccc2c(c1)OCO2
 : -1	0
21. COc1ccccc1CN1C[C@@H]2N[C@H](C1)C2c1ccc(-c2ccc(C#N)cc2)cc1 (some centres undefined)
 : ?	-22
22. C[C@H]1CN([C@@H](C)CO)C(=O)c2cc(C#CC(C)(C)O)cnc2O[C@H]1CN(C)C(=O)CC1CC1
 : 19	7
23. CCS(=O)(=O)N[C@@H]1C=C[C@H](CC(=O)N2CCCCC2)O[C@H]1CO
 : -1	0
24. C[C@H](CO)N1C[C@H](C)[C@H](CN(C)Cc2ccncc2)Oc2c(NC(=O)Nc3ccc4c(c3)OCO4)cccc2C1=O
 : -4	-9
25. C[C@@H]1CCCCO[C@@H](CN(C)S(=O)(=O)c2cn(C)cn2)[C@H](C)CN([C@H](C)CO)C(=O)c2cc(NS(=O)(=O)c3ccccc3)ccc2O1
 : 18	10
26. N#Cc1cccc(-c2ccc([C@H]3[C@H](CO)N4CCCCN(C(=O)Nc5ccc(F)cc5)C[C@@H]34)cc2)c1
 : ?	.
27. O=C(NCC[C@H]1CC[C@@H](NC(=O)c2cccnc2)[C@@H](CO)O1)Nc1ccc(C(F)(F)F)cc1
 : 6	9
28. CC(C)NC(=O)N(C)C[C@H]1Oc2ccc(NC(=O)Nc3ccc(C(F)(F)F)cc3)cc2C(=O)N([C@@H](C)CO)C[C@H]1C
 : -5	-3
29. O=C(Cc1cccnc1)N1CCCCN2[C@H](CO)[C@H](c3ccc(/C=C/c4ccccc4)cc3)[C@H]2C1
 : ?	.
30. COc1ccc(-c2ccc([C@@H]3[C@@H](CO)N(C(=O)c4cccc(F)c4)[C@H]3C#N)cc2)cc1
 : -1	5
31. CC(C)OC(=O)N(C)C[C@H]1OCc2ccccc2-c2ccccc2C(=O)N([C@H](C)CO)C[C@H]1C
 : 2	-9
32. O=C(N[C@@H]1CC[C@H](CC(=O)N2CCc3ccccc3C2)O[C@H]1CO)C1CCOCC1
 : -5	-2
33. C[C@@H]1CN([C@@H](C)CO)C(=O)c2cc(-c3ccncc3)cnc2O[C@@H]1CN(C)C(=O)CN1CCOCC1
 : 33	10
34. Cc1ccc(S(=O)(=O)N(C)C[C@H]2Oc3c(NC(=O)Nc4ccc(F)cc4)cccc3C(=O)N([C@H](C)CO)C[C@H]2C)cc1
 : -27	-18
35. O=C(c1cccc(F)c1)N1CCCCN2[C@H](CO)[C@H](c3ccc(/C=C/c4ccccc4)cc3)[C@H]2C1
 : ?	.
36. CCS(=O)(=O)N1CC2(C1)CN(S(=O)(=O)c1cn(C)cn1)[C@@H](CO)c1[nH]c3cc(OC)ccc3c12
 : 18	12
37. O=S(=O)(c1ccccc1)N1CC2(C1)[C@@H](c1ccccc1)[C@@H](CO)N2CCC(F)(F)F
 : 0	4
38. C[C@H](CO)N1C[C@H](C)[C@H](CN(C)C(=O)Nc2cccc3ccccc23)Oc2ccc(NS(=O)(=O)c3ccc(Cl)cc3)cc2CC1=O
 : 19	15
39. C[C@H](CO)N1C[C@H](C)[C@H](CN(C)Cc2ccncc2)OCc2ccccc2-c2ccccc2C1=O
 : 16	10
40. COc1ccc2c3c([nH]c2c1)[C@@H](CO)N(S(C)(=O)=O)CC31CN(CC2CC2)C1
 : 14	4
41. CNC[C@@H]1Oc2ccc(NC(=O)c3ccncc3)cc2C(=O)N([C@H](C)CO)C[C@@H]1C
 : 40	33
42. C[C@H]1CCCCO[C@H](CN(C)Cc2ccc(C(F)(F)F)cc2)[C@@H](C)CN([C@@H](C)CO)C(=O)c2cc(NC(=O)Nc3ccc(F)cc3)ccc2O1
 : -17	-17
43. Cc1noc(C)c1S(=O)(=O)N(C)C[C@H]1OCCCC[C@@H](C)Oc2ccc(NC(=O)NC3CCCCC3)cc2C(=O)N([C@H](C)CO)C[C@@H]1C
 : -1	-7
44. O=C(C[C@H]1CC[C@@H]2[C@H](COC[C@@H](O)CN2C(=O)Nc2ccc(Cl)c(Cl)c2)O1)NCc1ccccc1
 : -29	-21
45. COC(=O)[C@H]1[C@H](CO)[C@H]2Cn3c(cccc3=O)[C@@H]1N2Cc1nccs1
 : -3	-8
46. CNC[C@@H]1Oc2ccc(NC(=O)C3CC3)cc2C(=O)N([C@H](C)CO)C[C@@H]1C
 : 16	12
47. O=C(C[C@@H]1C=C[C@H](NC(=O)Nc2ccccc2)[C@@H](CO)O1)NCc1cccc(F)c1
 : 4	5
48. COc1ccc(CN(C)C[C@H]2Oc3ccc(NC(=O)Cc4ccccc4)cc3CC(=O)N([C@@H](C)CO)C[C@H]2C)cc1
 : -12	-12
49. COC(=O)C[C@H]1CC[C@H]2[C@@H](COC[C@H](O)CN2C(=O)Nc2ccccc2OC)O1
 : 1	-4
50. COc1ccc(CN(C)C[C@H]2Oc3ccc(NC(=O)Cc4ccccc4)cc3C(=O)N([C@H](C)CO)C[C@@H]2C)cc1
 : 2	9
51. COc1ccc(C#Cc2ccc3c(c2)O[C@@H](CN(C)S(=O)(=O)c2ccccc2F)[C@@H](C)CN([C@H](C)CO)S3(=O)=O)cc1
 : -15	-10
52. CCS(=O)(=O)N[C@H]1C=C[C@@H](CC(=O)N2CCCCC2)O[C@@H]1CO
 : 17	21
53. CO[C@@H]1CN(C)C(=O)c2cc(NC(=O)NC3CCCCC3)ccc2OC[C@@H](C)N(CC2CC2)C[C@H]1C
 : -21	-14
54. C[C@@H](NC(=O)C[C@@H]1C[C@@H]2c3cc(NC(=O)Nc4ccccc4F)ccc3O[C@@H]2[C@H](CO)O1)c1ccccc1
 : 10	5
55. Cc1ccc(-c2ccc3c(c2)O[C@@H](CN(C)C)[C@H](C)CN([C@@H](C)CO)S3(=O)=O)cc1
 : -16	-29
56. COc1ccccc1-c1ccccc1[C@H]1[C@@H](C#N)N(C(=O)CN(C)C)[C@H]1CO
 : 9	8
57. C[C@@H]1CN([C@@H](C)CO)S(=O)(=O)c2ccc(-c3ccncc3)cc2O[C@H]1CN(C)Cc1cccnc1
 : -11	-7
58. CCCNC(=O)Nc1ccc2c(c1)OC[C@H](C)N(CCC)C[C@H](C)[C@@H](OC)CN(C)C2=O
 : -2	3
59. O=C(C[C@H]1C=C[C@H](NC(=O)CC2CC2)[C@H](CO)O1)NCc1ccc(-c2ccccc2)cc1
 : 0	10
60. C[C@@H]1CN([C@H](C)CO)C(=O)c2cc(NC(=O)CCC(F)(F)F)ccc2O[C@@H]1CN(C)Cc1ccc(C(F)(F)F)cc1
 : -8	-4

(cont.)
Values in the order – Vaccinia inh	Vaccinia inh Venus
61. COc1cccc(CN2CCCCN3[C@@H](CO)[C@@H](c4ccc(C#Cc5cccnc5)cc4)[C@@H]3C2)c1
 : -24	-15
62. COCC(=O)Nc1ccc2c(c1)OC[C@@H](C)N(C(=O)Cc1cccnc1)C[C@@H](C)[C@H](OC)CN(C)C2=O
 : 8	11
63. COc1ccc(S(=O)(=O)N(C)C[C@H]2Oc3c(NS(=O)(=O)c4cccs4)cccc3C(=O)N([C@@H](C)CO)C[C@H]2C)cc1
 : 24	20
64. CN1C(=O)c2cc(NC(=O)c3ccc(F)cc3)ccc2OC[C@@H]2O[C@H](CC(=O)NCC3CC3)CC[C@H]21
 : 2	2
65. C[C@@H]1CCCCO[C@H](CN(C)C(=O)c2ccccc2)[C@@H](C)CN([C@@H](C)CO)C(=O)c2cc(NS(=O)(=O)c3cn(C)cn3)ccc2O1
 : 20	8
66. C[C@@H]1CN([C@@H](C)CO)C(=O)c2cccc(NC(=O)c3nc4ccccc4s3)c2O[C@H]1CN(C)S(=O)(=O)c1ccccc1
 : 5	-3
67. CNC[C@H]1Oc2ccc(NC(=O)CCN3CCOCC3)cc2C(=O)N([C@H](C)CO)C[C@H]1C
 : 2	-2
68. O=C(C[C@H]1C[C@@H]2c3cc(NC(=O)CC4CC4)ccc3O[C@@H]2[C@H](CO)O1)NCc1cccnc1
 : 7	6
69. COc1cccc(-c2cnc3c(c2)C(=O)N([C@H](C)CO)C[C@H](C)[C@@H](CN(C)CC2CCOCC2)O3)c1
 : 8	16
70. COc1ccccc1S(=O)(=O)N[C@H]1CC[C@@H](CC(=O)N2CCOCC2)O[C@@H]1CO
 : 2	13
71. CC(=O)N(C[C@H]1N[C@H](CO)[C@@H]1c1ccc(-c2ccc(F)cc2)cc1)C(C)C
 : -13	5
72. C[C@@H]1CCCCO[C@H](CN(C)S(=O)(=O)c2ccc(Cl)cc2)[C@@H](C)CN([C@H](C)CO)C(=O)c2cc(NS(=O)(=O)c3cccs3)ccc2O1
 : 0	-3
73. O=C(C[C@@H]1C=C[C@H](NC(=O)Nc2ccc3c(c2)OCO3)[C@@H](CO)O1)NCc1ccc(F)cc1
 : 6	13
74. O=C(C[C@@H]1CC[C@H](NC(=O)CN2CCOCC2)[C@H](CO)O1)NCCc1ccncc1
 : 12	16
75. OC[C@@H]1[C@@H](c2ccc(-c3ccccc3)cc2)[C@@H]2CN(Cc3ccccn3)CCCCN12
 : 21	13
76. CCCC#Cc1cnc2c(c1)C(=O)N([C@@H](C)CO)C[C@H](C)[C@H](CN(C)C(=O)c1cccc(F)c1)O2
 : 1	16
77. O=C(C[C@H]1CC[C@H]2[C@@H](COC[C@H](O)CN2Cc2ccc(F)cc2)O1)NCCc1ccccc1
 : 7	-4
78. Cc1ccccc1-c1ccc2c(c1)O[C@@H](CN(C)C(=O)Nc1ccc(F)cc1)[C@H](C)CN([C@H](C)CO)S2(=O)=O
 : ?	.

2 entries from above, with each value named.
73	O=C(C[C@@H]1C=C[C@H](NC(=O)Nc2ccc3c(c2)OCO3)[C@@H](CO)O1)NCc1ccc(F)cc1
  Vaccinia inh = 6 | Vaccinia inh Venus = 13

74	O=C(C[C@@H]1CC[C@H](NC(=O)CN2CCOCC2)[C@H](CO)O1)NCCc1ccncc1
  Vaccinia inh = 12 | Vaccinia inh Venus = 16

Assay outcomes as filed in PubChem BioAssay.
